# MT1-MMP act inh – blocks activation of human MT1-MMP. GFP/RFP ratio change, % at 20 µM. HT1080 RFP-PRO-GFP cells, GFP/RFP ratio fluorescence, overnight; percent of plate control window, DMSO zero. actives 0.061% (n = 360,000). P50281;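 active = GFP/RFP ratio change of at least 30% with cell ATP level not reduced by more than half and red fluorescence within 50% of control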; note: strong numbers were not always called active
#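 Assay system: RFP-PRO-GFP reporter HT1080 cells; read-out basis: GFP/RFP fluorescence ratio; benchmarks: DMSO wells and RFP-L50D-GFP cells; doses: 20 µM single dose, 1% DMSO; schedule: overnight cell settling, then overnight compound exposure, 37 °C, 5% CO2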
# Rce1 inhib – yeast Ras-converting enzyme inhibition; yeast membranes, quenched prenylated peptide cleavage fluorescence; calls only; actives 0.27% (n = 290,000); AID 2563;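 active = fall in fluorescence gain of 50% or more versus controls, with final raw signal at or below 3038400; inconclusive = same 50% fall but final raw signal above 3038400; inactive = fall in fluorescence gain under 50%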;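 note: plate controls were neutral control wells for no effect and wells lacking membranes for full effect; tested at 10 µM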
# eIF4H FP inh – inhibitors of RNA binding by human eIF4H; Q15056; eIF4H fluorescence polarization binding assay; inhibition, % at 35 µM; actives 0.94% (n = 290,000);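 active = 50% or more with normal probe brightness, or confirmed in later tests; inconclusive = above 50% with abnormal brightness, or retests that disagree; inactive = below 50% or failed in later tests; about a fifth of its hits are not listed in these tables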;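 note: calls also rest on retests at 20 µM and on dose response follow-up; 0% = protein and probe with vehicle and 100% = probe without protein; strong numbers were not always called active; many hits fall short of the cut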
# UUG fidelity – alters start codon recognition fidelity in yeast. actives 0.13% (n = 350,000). S. cerevisiae UUG-firefly luciferase reporter, luminescence/redox ratio. AID 602363. activity score, % at 18.7 µM;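 active = replicate mean at a twofold rise or more, about +100% in these data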;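 note: firefly luciferase made from a UUG start codon reports start codon fidelity; reporter light over untreated wells divided by growth signal over untreated wells; some hits fall short of that in this replicate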
# CSC inhib – blocks cancer stem cells; cancer stem cell-like cells viability, luminescence; inhibition, % at 7.5 µM; actives 1.1% (n = 300,000); AID 2717;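 active = mean at 75% or more and at least half the replicates too; inconclusive = mean and replicates disagree; tested in HMLE shEcad cells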;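 note: 0% = median of negative and 100% = median of positive control wells; the first replicate is given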
# PABP polyA inh – PABP-poly(A) binding inhibition; actives 1% (n = 290,000); P11940; PABP-poly(A) RNA binding, fluorescence polarization; inhibition, % at 35 µM;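 active = 50% or more with normal probe brightness, or confirmed in later tests; inconclusive = above 50% with abnormal brightness, or retests that disagree; inactive = below 50% or failed in later tests; about a fifth of its hits are not listed in these tables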;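 note: calls also rest on retests at 20 µM and on dose response follow-up; controls were probe without protein and protein plus probe with vehicle; some compounds called inactive have numbers as strong as hits; many hits fall short of the cut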
# Target sequence (P11940 whole entry, looked up): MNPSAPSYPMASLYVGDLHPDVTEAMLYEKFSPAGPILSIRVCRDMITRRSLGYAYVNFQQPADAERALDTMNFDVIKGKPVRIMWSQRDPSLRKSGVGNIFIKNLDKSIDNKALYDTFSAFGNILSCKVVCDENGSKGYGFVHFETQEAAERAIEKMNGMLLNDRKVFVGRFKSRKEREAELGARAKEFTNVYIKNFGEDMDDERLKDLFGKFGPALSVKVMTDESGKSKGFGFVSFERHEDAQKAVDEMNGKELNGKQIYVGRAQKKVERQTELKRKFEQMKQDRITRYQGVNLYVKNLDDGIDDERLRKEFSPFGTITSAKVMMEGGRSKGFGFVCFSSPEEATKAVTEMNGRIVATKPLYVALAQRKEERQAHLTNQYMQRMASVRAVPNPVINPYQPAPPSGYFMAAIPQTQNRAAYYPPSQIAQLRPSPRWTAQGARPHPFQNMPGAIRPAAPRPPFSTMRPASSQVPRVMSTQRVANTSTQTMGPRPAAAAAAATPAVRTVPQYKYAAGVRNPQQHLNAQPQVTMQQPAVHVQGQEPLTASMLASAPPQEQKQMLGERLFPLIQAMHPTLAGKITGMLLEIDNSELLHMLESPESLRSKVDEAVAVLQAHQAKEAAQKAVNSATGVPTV
# Env fusion inh – inhibitors of HIV Env-mediated cell fusion. inhibition, % at 12.3 µM. HeLa-JRFL Env/CEM21 cell fusion, luciferase. actives 1.1% (n = 360,000);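 active = mean replicate inhibition score of at least 50 and every replicate individually at or above 50; inconclusive = only one of the two criteria met; inactive = mean below 50 and not all replicates reaching 50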;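 note: 0% = plate neutral controls and 100% = maraviroc near 300 nM; one replicate is shown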
# eIF4H FP inh retest – further read-out of eIF4H FP inh, marked with its call; inhibition, %; compound at 20 µM; confirmation average;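 mean of two retest wells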
# PABP polyA inh retest – further read-out of PABP polyA inh, marked with its call; inhibition, %; compound at 20 µM; confirmation repeats;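 mean of two retest wells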
# MT1-MMP act inh RFP – recorded beside MT1-MMP act inh, whose call it bears; RFP signal change, %; measured here: RFP expression control read;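 0 = vehicle wells; hits needed this value within 50% of zero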
# Starred values were filed as active, the others as inactive; i = inactive; ? = inconclusive; · = not tested or not shown; & = joins results of further samples; [ ] = dose if it differs, or a comment. This is a subset (hit frequency here may not be typical).
SMILES,MT1-MMP act inh,MT1-MMP act inh RFP,Rce1 inhib,eIF4H FP inh,UUG fidelity,CSC inhib,PABP polyA inh,Env fusion inh,others
CCN1C(=O)C(CC(=O)Nc2cc(C)ccc2C)SC1=Nc1ccc(S(N)(=O)=O)cc1 (stereo not given),3,-7,i,-10,-10,-2,-3,14,
O=C(NCc1ccccc1)c1ccc(N2CCC3(CC2)CC(c2ccc(Cl)cc2)=NO3)c([N+](=O)[O-])c1,0,-18,i,6,-15,20,10,23,
Cc1ccc(NC(=O)CSc2ncn[nH]2)cc1,4,1,i,-3,·,-14,3,-2,
CCN(Cc1ccncc1)C(=O)c1ccc(C)c(S(=O)(=O)N2CCCCC2)c1,-2,-8,·,·,6,11,·,·,
NC(=O)c1oc2ccccc2c1NC(=O)C1CCCCC1,3,1,i,-7,-2,5,-11,-107,
N#Cc1ccc(-c2cccs2)nc1SCc1cccnc1,-4,-12,i,12,-6,54,5,-130,
O=C(CCn1c2c(c3ccccc31)CCCC2)NNC(=O)c1ccccc1[N+](=O)[O-],0,-1,i,8,·,-5,5,12,
CC(C)(C)c1ccc(NC(=O)NC2CCCc3ccccc32)cc1 (stereo not given),3,-2,·,-4,1,64,8,-3,
CCCNC(=O)C1(C)CCN(Cc2ccc(-c3ccccc3)o2)C1 (stereo not given),-3,2,·,·,-10,·,·,6,
CCc1cccc(CC)c1NC(=O)c1cccc(N)c1,-1,0,i,-5,-26,-11,0,-51,
COc1cc(C(=O)O/N=C2\C=CC(=O)C=C2C)cc(OC)c1OC,5,2,i,6,·,3,2,21,
CC1SCC(=O)N(CC(=O)Nc2ccc3c(c2)OCCO3)C1=O (stereo not given),-2,-1,i,-14,·,-12,-12,?,
COCCCNc1nc(-c2ccncc2)nc2ccccc12,2,-3,i,4,-12,-12,-8,-51,
CN(CCO)c1c2c(nc3cc(-c4cccc(F)c4)nn13)CCCC2,-4,-11,i,-16,·,5,-11,-65,
CCn1c(=O)c(C(=O)CN2CCN(Cc3ccc4c(c3)OCO4)CC2)c(N)n(Cc2ccccc2)c1=O,1,-1,i,5,·,-1,12,4,
CCc1ccc(CN(C)CC(=O)Nc2ccc(S(=O)(=O)N3CCOCC3)cc2)cc1,2,-6,·,·,-12,-3,·,·,
CC1CCCN(c2ccc(C(=O)NCc3ccc4c(c3)OCO4)cc2[N+](=O)[O-])C1 (stereo not given),2,0,i,-10,·,15,-14,29,
C/C(CC(=O)Nc1ccc(F)cc1F)=N\NC(=O)C(=O)N1CCCCC1,·,·,i,4,·,-7,1,·,
O=C(CSc1ccc(-c2ccco2)nn1)N1CCCCC1,3,4,i,95,·,-13,2.1*,-7,eIF4H FP inh retest=5;PABP polyA inh retest=73*
OC1CN=C2C=CC=CN2C1 (stereo not given),3,4,i,2,-1,-1,3,·,
CCOc1ccc(NC(=O)C2CCN(C(=O)NC3CCCCC3)CC2)cc1,0,-1,i,-7,·,-1,-5,-24,
O=C(c1cccc(C(F)(F)F)c1)N1CCC2(CC1)NCCc1[nH]cnc12,3,4,i,·,-18,-10,·,-4,
CN(Cc1cn[nH]c1-c1ccc(-c2ccccc2)cc1)CC1CCOCC1,-2,1,i,-5,-14,-3,0,9,
Fc1cccc(Cl)c1/C=N/Nc1c(Cl)cncc1Cl,-16,-18,i,6,·,-1,9,-18,
CC1=C(C(=O)NC2CCCCC2C)C2(CCC(C)CC2)OC1=O (stereo not given),3,4,i,8,7,-6,3,-20,
CCOc1ccc(S(=O)(=O)Nc2ccc3c(c2)n(C)c(=O)n3C)cc1,9,-19,i,-1,-13,·,3,21,
O=C(CSc1nc2ccccc2s1)N/N=C/c1ccc(C(=O)O)cc1,0,3,i,-5,·,-2,-2,-11,
CCOc1ccccc1CNCCOC,2,7,i,0,·,-14,2,-23,
O=C(Nc1nnc(SCc2ccccc2)s1)c1cccc([N+](=O)[O-])c1,-1,-2,i,11,-7,40,-1,6,
Cc1ccc(S(=O)(=O)Cc2ccc(C(=O)N3CCC(C(N)=O)CC3)o2)cc1,0,2,i,7,2,3,1,-2,
CCOC(=O)C(NC(=O)CC)(Nc1ccccc1)C(F)(F)F (stereo not given),0,2,i,-2,-3,-18,3,-25,
CCOc1ccc(N(CC(=O)N2CCN(c3ccccc3OC)CC2)S(=O)(=O)c2ccc(F)cc2)cc1,-3,-11,i,-1,6,-14,-5,-1,
CCc1nnc(NC(=O)CSc2nnc(-c3ccc(S(=O)(=O)N(CC)CC)cc3)n2CC)s1,6,-1,i,1,-15,-14,-1,32,
CC(C)OC(=O)Cn1cc(C#N)c2ccccc21,1,1,i,-2,·,5,-2,-2,
CCCCOCCCNC(=O)CN1C(=O)c2ccccc2C1=O,-3,3,i,-4,-9,3,-4,·,
COCCCNC(=O)Cn1c(=O)n(CCCCCC(=O)NCc2ccc3c(c2)OCO3)c(=O)c2sccc21,-1,2,i,3,-9,-14,66,-8,eIF4H FP inh retest=46;PABP polyA inh retest=14
O=C(NCc1ccccc1CN1CCCC1)c1cccc(N2CCCC2=O)c1,-7,-1,·,·,-4,-1,·,·,
COc1ccc(S(=O)(=O)N/N=C(/C)c2ccncc2)c(OC)c1,5,7,i,-1,-8,-7,0,-12,
CN(CC(=O)O)c1ccc(S(=O)(=O)N2CCOCC2)cc1[N+](=O)[O-],-2,2,i,-4,·,0,2,15,
FC(F)(F)c1nc2ccccc2nc1N/N=C/c1c(Cl)cccc1Cl,-5,-4,i,7,-9,4,8,·,
O=c1cc(N2CCN(Cc3ccccc3)CC2)[nH]c(=O)n1Cc1ccc(F)cc1,-2,-5,i,1,-11,-1,-1,-10,
O=C(CC(=O)N/N=C/c1ccc(O)cc1)N/N=C/c1ccc(O)cc1,2,1,i,-7,-13,-18,2,2,
CN(C)C(/C=C/Nc1ccc(F)cc1)=C(C#N)C#N,8,5,i,-3,-23,·,-1,17,
Cc1ccc(C(=O)Nc2nc(=O)n(C(=O)CC(C)C)s2)cc1,19,-1,i,1,·,16,6,-57,
Clc1ccc(SCc2csc(N3CCOCC3)n2)cc1,3,-7,i,1,·,9,11,-13,
S=C(NCCc1ccccc1)N1CCN(C(=S)NCCc2ccccc2)CC1,2,1,·,·,-36,·,·,-14,
O=c1cc(O)c2ccccc2n1Cc1ccccc1Cl,4,-9,i,12,26,-19,-3,2,
CCCn1c(N)c(Sc2ccccc2)c(=O)n(CCC)c1=O,-3,3,i,0,-15,·,-2,·,
CC1(C)CC(NC(=O)Cc2ccccc2)CC(C)(C)N1,0,2,i,10,-13,-17,-12,16,
CCOC(=O)C1=CCN(S(=O)(=O)c2ccccc2Br)C1c1ccc(Br)cc1 (stereo not given),-5,-7,·,·,-12,·,·,?,
# Next structures follow.
SMILES,MT1-MMP act inh,MT1-MMP act inh RFP,Rce1 inhib,eIF4H FP inh,UUG fidelity,CSC inhib,PABP polyA inh,Env fusion inh,others
CCCCCC(=O)N1CC2(C)CN(C(=O)CCCCC)CC(C)(C1)C2=O,-2,4,i,-3,-7,4,-7,·,
CN(c1ccccc1)S(=O)(=O)c1ccc(NC(=O)c2ccccc2)cc1,-4,-11,i,5,·,2,5,9,
C[C@@H]1CN([C@@H](C)CO)C(=O)c2cc(NC(=O)c3ccncc3)ccc2O[C@@H](C)CCCCO[C@@H]1CN(C)C(=O)Cc1ccccc1,-2,4,·,·,5&20,·,·,5[16.7 µM],
COc1ccc(CCNC(=O)c2nc3ncccn3n2)cc1OC,-3,3,i,-4,-17,-5,-7,·,
COc1ccc(CCNC(=O)c2ccc3c(c2)SC2=NS(=O)(=O)CCN23)cc1,-2,4,i,-14,-7,-9,-4,7,
CC(=O)Nc1ccc(NC(=O)C2CCCN(c3nnc(-n4cccc4)s3)C2)cc1 (stereo not given),3,8,i,12,·,·,3,·,
CC1(C)CC2CC(C)(CN2S(=O)(=O)c2ccc(C(=O)Nc3ccc(Cl)c(S(=O)(=O)N4CCOCC4)c3)cc2)C1 (stereo not given),2,-23,i,-2,-15,19,-5,·,
Cc1nn(-c2ccccc2)c(C)c1C(=O)N1CCN(S(=O)(=O)c2ccccc2)CC1,-1,2,·,·,-9,-3,·,·,
CN(C(=O)c1ccc(NC(=O)Cc2ccc(NC(=O)C3CCN(C(=O)C4CCCCC4)CC3)cc2)cc1)C1CCCC1,0,3,·,·,-2,·,·,7,
OC(CN1CCC(Cc2ccccc2)CC1)C(F)(F)F (stereo not given),1,-2,i,3,5,·,5,-6,

# 2 entries drawn at random from the list so far:
SMILES,MT1-MMP act inh,MT1-MMP act inh RFP,Rce1 inhib,eIF4H FP inh,UUG fidelity,CSC inhib,PABP polyA inh,Env fusion inh,others
CN(C(=O)c1ccc(NC(=O)Cc2ccc(NC(=O)C3CCN(C(=O)C4CCCCC4)CC3)cc2)cc1)C1CCCC1,0,3,·,·,-2,·,·,7,
CC(=O)Nc1ccc(NC(=O)C2CCCN(c3nnc(-n4cccc4)s3)C2)cc1 (stereo not given),3,8,i,12,·,·,3,·,

# (cont.)
SMILES,MT1-MMP act inh,MT1-MMP act inh RFP,Rce1 inhib,eIF4H FP inh,UUG fidelity,CSC inhib,PABP polyA inh,Env fusion inh,others
Cc1ccc(N2C(=O)C3C4C=CC(CC4)C3C2=O)cc1Cl (stereo not given),0,-4,i,-15,-10,51,1,14,
COc1ccc(N2C(=O)CSC2c2ccncc2)cc1 (stereo not given),1,2,i,-1,2,·,0,-85,
C[C@H]1CN([C@@H](C)CO)C(=O)CCCn2nncc2CO[C@@H]1CN(C)Cc1ccc(-c2ccccc2)cc1,-1,-3,·,·,-8&-2,·,·,20,
CCOC(=O)C1C(C(=O)NN)C1C(=O)Nc1ccccc1 (stereo not given),0,4,i,3,6,0,0,-16,
Cc1ccc(Nc2nc(-c3ccc(S(=O)(=O)N4CCOCC4)cc3)cs2)cc1,-1,-8,i,·,-18,-4,·,43,
N=C1CCCC1C(=S)SCCC(N)=O (stereo not given),-8,3,·,·,4,·,·,-2,
O=C(NCCc1ccco1)C(=O)NCC1CCCN1S(=O)(=O)c1ccccc1 (stereo not given),1,1,i,·,0,·,·,9,
CC(C)[C@H](NC(=O)N1CCn2c1nc1ccccc12)C(=O)NCc1ccco1,-3,-2,i,-5,-11,-12,-6,4,
Cc1ccc(/C=C2\SC(=S)N(CCC(=O)Nc3ccc(O)cc3)C2=O)cc1,2,-3,i,-9,-21,0,-2,1,
CC1CN(C(=O)C2CCCCC2)C(C)CN1C(=O)C1CCCCC1 (stereo not given),3,-1,i,-1,-6,·,-1,5,
CSc1ncccc1C(=O)N(C)CC(=O)Nc1ccc(Cl)cc1,3,3,·,-9,-10,2,1,-8,
CCN(CC(=O)Nc1ccc(NC(C)=O)cc1)C(=O)CN1C(=O)NC2(CCCC2)C1=O,-1,2,i,·,-8,-16,·,-1,
CC(OC(=O)c1cc2ccccc2cc1O)C(=O)Nc1ccc(S(N)(=O)=O)cc1 (stereo not given),0,3,i,-6,-16,10,7,-3,
CCOC(=O)C1CCN(C(=O)COC(=O)/C=C/c2cccc(OC)c2OC)CC1,1,6,·,·,-2,13,·,·,
COc1ccc(/C=N/Nc2cc(C)nc(N)n2)cc1,-1,5,i,2,-5,-6,-2,·,
CCOC(=O)CSc1nnc(-c2ccc(NS(=O)(=O)c3ccc(C)cc3)cc2)o1,0,0,i,-8,-12,·,2,11,
COc1cccc(CN2CCN(S(=O)(=O)c3ccc(Br)cc3)CC2)c1,1,1,i,-3,-18,-3,-6,·,
COc1ccc(-c2cc(C(F)(F)F)nc(N3CCCCC3)n2)cc1OC,-5,-10,i,-3,-18,44,1,-29,

# From PubChem
